Bioassay records (PubChem)
eIF4H FP inh = human eIF4H binding inhibitors, primary screen, translation initiation inhibitor project, biochemical, uHTS, fluorescence polarization. Eukaryotic translation initiation factor 4H (Homo sapiens), Q15056. eIF4H fluorescence polarization binding assay. inhibition, % at 35 µM. 290,000 tested, 0.94% active;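 active = 50% or more with normal probe brightness, or confirmed in later tests; about a fifth of its hits are not listed in these tables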;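 also: calls also rest on retests at 20 µM and on dose response follow-up; 0% = protein and probe with vehicle and 100% = probe without protein; strong numbers were not always called active; many hits fall short of the cut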
MT1-MMP act inh = blockers of MT1-MMP proenzyme processing, primary screen, HT1080 RFP-PRO-GFP cells, GFP/RFP fluorescence. 360,000 tested, 0.061% active. GFP/RFP ratio change, % at 20 µM. Matrix metalloproteinase-14 (Homo sapiens), P50281. GFP/RFP ratio fluorescence, overnight; percent of plate control window, DMSO zero. AID 651647, 2012;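 active = GFP/RFP ratio change of at least 30% with cell ATP level not reduced by more than half and red fluorescence within 50% of control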; also: strong numbers were not always called active
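Read-out: GFP/RFP fluorescence ratio; Test system: RFP-PRO-GFP reporter HT1080 cells; Compound dosing: single-point 20 µM compound, 1% DMSO; Times: overnight compound exposure at 37 °C.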
PABP FP inh = PABP poly(A) RNA binding inhibitors, primary screen, biochemical, fluorescence polarization, uHTS. 290,000 tested, 1% active. inhibition, % at 35 µM. AID 2014, 2009. Polyadenylate-binding protein 1 (Homo sapiens), P11940;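 active = 50% or more with normal probe brightness, or confirmed in later tests; about a fifth of its hits are not listed in these tables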;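 also: calls also rest on retests at 20 µM and on dose response follow-up; controls were probe without protein and protein plus probe with vehicle; some compounds called inactive have numbers as strong as hits; many hits fall short of the cut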
Yeast UUG start = modulators of yeast start codon fidelity, primary screen, whole organism, S. cerevisiae, single point, plate reader. S. cerevisiae UUG-firefly luciferase reporter, luminescence/redox ratio. activity score, % at 18.7 µM. 350,000 tested, 0.13% active. AID 602363, 2012;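 active = replicate mean at a twofold rise or more, about +100% in these data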;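 also: firefly luciferase made from a UUG start codon reports start codon fidelity; reporter light over untreated wells divided by growth signal over untreated wells; some hits fall short of that in this replicate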
Rce1 inhib = yeast Rce1p protease inhibitors, primary screen, biochemical, fluorescence, cell-free homogeneous | yeast membranes, quenched prenylated peptide cleavage fluorescence | calls only | 290,000 tested, 0.27% active;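 active = fall in fluorescence gain of 50% or more versus controls, with final raw signal at or below 3038400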;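 also: plate controls were neutral control wells for no effect and wells lacking membranes for full effect; tested at 10 µM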
Target sequence (Q03530 whole entry, looked up): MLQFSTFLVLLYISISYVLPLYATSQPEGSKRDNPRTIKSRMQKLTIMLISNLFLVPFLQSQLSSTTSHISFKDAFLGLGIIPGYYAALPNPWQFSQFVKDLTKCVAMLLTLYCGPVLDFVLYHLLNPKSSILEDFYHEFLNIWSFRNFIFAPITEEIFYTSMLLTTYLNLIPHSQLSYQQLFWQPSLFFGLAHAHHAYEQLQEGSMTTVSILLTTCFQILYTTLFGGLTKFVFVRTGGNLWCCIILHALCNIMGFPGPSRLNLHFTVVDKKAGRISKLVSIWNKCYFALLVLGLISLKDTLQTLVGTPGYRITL
CSC inhib = cancer stem cell viability inhibitors, primary screen, luminescence | cancer stem cell-like cells viability | inhibition, % at 7.5 µM | 300,000 tested, 1.1% active | AID 2717, 2010;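 active = mean at 75% or more and at least half the replicates too; tested in HMLE shEcad cells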;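 also: 0% = median of negative and 100% = median of positive control wells; the first replicate is given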
HIV Env fusion = inhibitors of HIV-1 Env-driven cell-cell fusion, primary screen, HeLa-JRFL effector, CEM21 target cells, luciferase. 360,000 tested, 1.1% active. inhibition, % at 12.3 µM. AID 651610, 2012;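 active = mean replicate inhibition score of at least 50 and every replicate individually at or above 50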;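 also: 0% = plate neutral controls and 100% = maraviroc near 300 nM; one replicate is shown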
eIF4H FP inh retest = further read-out of eIF4H FP inh, marked with its call; inhibition, %; compound at 20 µM; confirmation average;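 mean of two retest wells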
PABP FP inh retest = also measured in PABP FP inh; calls as there; inhibition, %; compound at 20 µM; confirmation repeats;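 mean of two retest wells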
MT1-MMP act inh RFP = also measured in MT1-MMP act inh; calls as there; RFP signal change, %; measured here: RFP expression control read;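 0 = vehicle wells; hits needed this value within 50% of zero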
* hit, by the source's call; i = inactive; . = not tested or not shown; + = active, no number. Outcome played no part in choosing rows, and some 2.9% of all compounds hit somewhere here.

SMILES	eIF4H FP inh	MT1-MMP act inh	MT1-MMP act inh RFP	PABP FP inh	Yeast UUG start	Rce1 inhib	CSC inhib	HIV Env fusion	others
COc1ccc(C=C2CS(=O)(=O)CC(=Cc3ccc(OC)cc3)C2=O)cc1	.	-9.6	-23.7	.	-21.5	.	.	-48.6
C[C@]12c3[nH]c4ccccc4c3CCN1C(=O)C(CC(=O)NCCN1CCOCC1)C[C@@H]2C(=O)N1CCOCC1 (stereo partly specified)	.	-1.1	2.4	.	1.0	.	-14.7	.
Cc1cc(NS(=O)(=O)c2ccc(NC(=O)C(C)N3C(=O)c4ccccc4C3=O)cc2)nc(C)n1 (stereo unspecified)	-4.9	11.9	12.8	1.4	-14.8	i	-7.4	-20.5
Cc1ccc(C(=O)N(CC(=O)NC2CCCC2)c2ccc3c(c2)OCCO3)s1	-5.9	-1.8	-3.7	-3.9	.	i	-16.4	-12.2
CC1CC(C)CN(CC(=O)Nc2ccc(S(N)(=O)=O)cc2)C1 (stereo unspecified)	-2.5	3.4	1.5	4.9	0.1	i	-17.3	.
Cc1c(C(=O)O)sc2nc(-c3cccs3)cc(C(F)(F)F)c12	-0.6	0.4	0.1	17.1	53.9	i	8.4	-8.1
CCc1sc(NC(=O)CCC(=O)O)nc1-c1cc2ccccc2oc1=O	5.2	0.2	3.0	3.0	.	i	-13.0	7.1
COc1ccc(-c2nc(-c3ccc(NC(=O)c4ccc(Br)o4)cc3)no2)cc1OC	-3.0	0.3	-1.0	-26.4	.	i	78.8*	.
Cc1ccc(S(=O)(=O)N2CCOCC2)cc1NC(=O)COC(=O)Cn1c(C)csc1=O	.	0.1	0.8	.	-6.0	i	-1.8	-15.9
CCOC(=O)c1cnc(SCC(=O)OCC(=O)N(CC)C2CCS(=O)(=O)C2)nc1N (stereo unspecified)	.	-5.3	-0.3	.	.	i	4.2	.
CCOC(=O)C1=c2/c(=C/c3ccncc3)c(N)c(C(=O)OC)n2C(=O)C(c2ccncc2)S1 (stereo unspecified)	0.7	-5.2	-5.0	9.1	-7.4	i	5.4	-13.7
COC(C[C@@H]1O[C@@H]1C(=O)[C@@H](C)OCc1ccccc1)OC	.	2.9	2.8	.	2.9	+	-6.1	15.1
O=C(Nc1ccc(Cl)cn1)c1ccc(COc2ccccc2Br)o1	-10.6	-4.0	-4.4	-5.0	-7.0	i	42.9	-37.9
Cc1cnc(C(=O)OCC(=O)C23CC4CC(CC(C4)C2)C3)cn1	-4.9	2.0	0.7	2.6	-13.9	i	5.3	.
CCn1nnc(NC(=O)C(C)(c2ccccc2)c2ccccc2)n1	3.5	0.8	1.6	4.3	0.0	i	-16.9	3.3
CCCCCCCNc1nc(Cl)nc(NCCO)n1	2.4	-4.6	-2.1	6.4	-1.4	i	-9.2	-19.6
O=C1N(c2ccc3c(c2)OCCO3)C(c2ccccc2)C1(F)F (stereo unspecified)	-7.5	2.0	-1.9	7.0	.	i	-11.6	11.3
Cc1ccccc1NC(=O)CNC(=O)c1ccc(C(F)(F)F)cc1	-3.8	-4.8	1.5	4.8	.	i	-0.1	.
C=CCn1c(=O)/c(=C/c2ccc(Cl)cc2)s/c1=C(/C#N)c1nnc2n1CCCCC2	-11.5	8.0	-8.6	-2.4	-20.6	i	3.0	-6.3
O=C(CSc1nnc(-c2cc(-c3cccs3)nc3ccccc23)o1)NC1CCCCC1	-15.2	-3.8	-6.4	3.2	-15.7	i	24.8	.
CC1=C(C(=O)Nc2ccc(C)cc2C)C(c2cccs2)NC(=S)N1 (stereo unspecified)	-0.6	2.1	3.7	0.6	-19.8	i	-7.6	-9.7
O=C(CSCc1cnn(-c2ccccc2)c1-n1cccc1)NCc1cccs1	-5.1	-3.4	-6.4	-10.6	0.3	i	1.0	.
COc1cc(/C=N/NC(=O)CCc2n[nH]c(=O)[nH]c2=O)cc(OC)c1OC	-11.0	5.6	5.2	35.5	-20.9	i	7.1	-23.1
CSc1nc2cc(C)nn2c(-c2ccc(C(C)(C)C)cc2)c1C#N	-15.8	16.3	-12.7	4.3	-10.8	i	-6.1	2.3
O=C(Cn1nc2sc3ccccc3n2c(=O)c1=O)c1ccc(Cl)cc1	-1.7	.	.	2.8	.	i	.	.

The list goes on; the last 5 above are carried over.
SMILES	eIF4H FP inh	MT1-MMP act inh	MT1-MMP act inh RFP	PABP FP inh	Yeast UUG start	Rce1 inhib	CSC inhib	HIV Env fusion	others
CC1=C(C(=O)Nc2ccc(C)cc2C)C(c2cccs2)NC(=S)N1 (stereo unspecified)	-0.6	2.1	3.7	0.6	-19.8	i	-7.6	-9.7
O=C(CSCc1cnn(-c2ccccc2)c1-n1cccc1)NCc1cccs1	-5.1	-3.4	-6.4	-10.6	0.3	i	1.0	.
COc1cc(/C=N/NC(=O)CCc2n[nH]c(=O)[nH]c2=O)cc(OC)c1OC	-11.0	5.6	5.2	35.5	-20.9	i	7.1	-23.1
CSc1nc2cc(C)nn2c(-c2ccc(C(C)(C)C)cc2)c1C#N	-15.8	16.3	-12.7	4.3	-10.8	i	-6.1	2.3
O=C(Cn1nc2sc3ccccc3n2c(=O)c1=O)c1ccc(Cl)cc1	-1.7	.	.	2.8	.	i	.	.
Cc1nn(C)c(C)c1NS(=O)(=O)c1ccccc1Cl	.	10.1	-3.1	.	-25.3	.	-1.4	-1.9
CCn1cc(SCC(=O)NC2CCCC2)c2ccccc21	5.3	-1.6	3.7	8.6	-1.9	i	11.0	12.4
O=C(O)CCC(=O)NC1CCCCCCC1	-14.0	-2.5	0.9	-5.3	-8.4	i	.	-30.9
Cc1nc(S(=O)(=O)c2ccc(Cl)cc2)c(N(C)C)o1	-8.9	0.4	3.5	8.8	-20.8	i	-2.4	4.6
COc1cc(C)c(S(=O)(=O)N2CCOCC2)cc1C	0.0	3.3	1.6	0.4	-21.1	i	6.9	.
Cc1cc(C)n2c(SCCO)nnc2n1	-1.7	1.9	3.8	-3.8	40.7	i	-14.4	-4.6
C=C(C)CCC(C)N1CCC(n2nccc2NC(=O)CCCc2ccccc2)CC1 (stereo unspecified)	2.1	-0.2	-0.9	-11.2	8.5	i	14.9	4.6
O=C(N/N=C/c1nn(-c2ccccc2)cc1-c1ccc(Cl)cc1)c1ccncc1	7.3	.	.	-1.9	.	i	-0.6	.
CCOc1ccc(-c2nnc3ccc(SCC(=O)Nc4nc5ccc(C)cc5s4)nn23)cc1	8.9	-2.8	-3.5	3.5	.	i	0.9	-3.4
CC1CCCCC1NC(=O)c1cccc(NC2=NC3CS(=O)(=O)CC3S2)c1 (stereo unspecified)	-11.8	2.0	3.6	1.5	-1.0	i	.	20.2
COc1ccc(C(=O)NCC2OCCc3ccccc32)c(O)c1 (stereo unspecified)	-7.0	-0.9	-3.8	-7.9	-15.5	i	-2.6	.
C[C@@H]1CN(c2nc3nonc3nc2N2CCSCC2)C[C@H](C)O1	1.9	-1.9	-1.0	5.9	-10.3	i	1.8	45.3
COc1ccc(N=c2oc3c(OC)cccc3cc2C(=O)NCc2ccco2)cc1OC	-1.8	10.8	0.1	6.7	-9.4	.	.	.
c1ccc(-n2nnnc2SCc2cn3ccccc3n2)cc1	3.2	-6.4	1.1	9.7	-26.9	i	-11.9	61.9
CCCN(CCC)S(=O)(=O)c1ccc(C(=O)NCc2n[nH]c(=S)n2-c2ccc(Cl)c(Cl)c2)cc1	-1.1	-2.9	-2.3	4.2	.	.	-4.5	-7.4
Cc1ccc(C2CC(c3cccs3)=NN2C(=O)CCl)cc1 (stereo unspecified)	-8.4	-3.5	-3.6	-10.7	-12.2	i	28.7	-7.9
O=C(CSCc1c(Cl)cccc1Cl)Nc1cccnc1	-6.3	3.3	-1.8	-10.1	-10.6	i	-15.3	5.3
CCCCCNc1nc(-c2ccccc2)cs1	2.3	.	.	3.4	.	i	-15.9	.
COc1ccccc1-c1cccc(-c2nc(C(=O)N3CCCCC3)cc3c2[C@H](CCO)N(S(=O)C(C)(C)C)C3)c1 (stereo partly specified)	.	6.2	6.7	.	8.2	.	.	-10.0
Cc1nc(-c2cccnc2)sc1C(N)=O	1.9	-2.0	-4.2	12.1	-14.8	i	3.5	-23.7
CCOC(=O)C1CCCCN1Cc1ccc(F)c(Br)c1 (stereo unspecified)	101.2	3.7	5.9	4.5	-7.5	i	-12.8	-8.1	eIF4H FP inh retest=0.1;PABP FP inh retest=-3.4
CSc1ccc(CNC2CC2)cc1	11.7	2.0	2.4	6.2	5.3	i	-1.0	.
O=C(CSc1nnc(-c2cccs2)o1)OC1CCCCC1	-10.7	2.2	1.8	-5.7	-4.9	i	-7.7	-26.4
Cc1cccc(NC(=O)CSc2nc3c(oc4ccccc43)c(=O)n2-c2ccccc2)c1	-7.2	-2.3	-5.7	-11.4	.	i	1.8	-11.4
O=C(CN1C(=O)C2CC=CCC2C1=O)NC1CCCCC1 (stereo unspecified)	0.6	4.6	4.9	-11.8	6.8	i	-9.0	-3.5

Later entries:
SMILES	eIF4H FP inh	MT1-MMP act inh	MT1-MMP act inh RFP	PABP FP inh	Yeast UUG start	Rce1 inhib	CSC inhib	HIV Env fusion	others
CN1CCN(CCOc2ccc(-c3ccccc3)cc2)CC1	-1.9	1.6	-1.6	17.6	-5.5	i	54.1	3.2
Cc1nn(CCOc2ccccc2)c(=O)n1-c1c(F)cccc1F	-2.5	3.0	0.4	-2.9	-11.6	i	-5.9	-213.3
COC(=O)C1=NNC(C(=O)c2ccco2)C1c1ccc(OC)cc1 (stereo unspecified)	-4.1	0.4	5.5	-2.8	-11.3	i	-8.5	11.2
O=C(CCn1c(=S)oc2ccccc21)Nc1ccc(F)cc1	8.9*	-3.5	0.2	54.2*	.	i	-24.1	-1.6	eIF4H FP inh retest=66.7*;PABP FP inh retest=81.6*
COCCN(C(=O)COC(=O)C12CC3CC(CC(C3)C1)C2)c1c(N)n(Cc2ccccc2)c(=O)[nH]c1=O	.	-2.6	-7.1	.	-11.7	.	.	29.3
COc1ccc(CN2C(=O)c3ccccc3C2=O)cc1C(=O)OC(C)C(=O)NC(N)=O (stereo unspecified)	-3.5	-8.8	-6.7	-4.0	.	i	12.4	-15.2
c1ccc(N2CCN(c3cnc4ccccc4n3)CC2)cc1	-12.3	-1.2	-4.5	-0.5	-17.0	i	10.2	.
S=C(NCc1ccncc1)NC1CCCCC1	5.8	-1.0	-0.2	8.0	-18.6	i	-13.3	10.4
CCC(CC)C(=O)N(C)c1c(C)nc2c(OCC(=O)N(C)C)cccn12	.	-0.6	4.6	.	-19.2	.	.	19.6
O=C(CN1C(=O)CSC1=O)NCc1ccccc1	4.0	0.1	5.6	3.3	-15.2	i	-9.3	-8.3
COc1ccc(-c2csc(C(NC(C)=O)c3cccc(OC)c3)n2)cc1 (stereo unspecified)	.	-1.1	-4.3	.	-15.8	.	.	-1.6
O=C(Nc1ccc(Cc2ccncc2)cc1)c1ccco1	3.5	8.2	1.6	7.3	.	i	0.8	.
C[C@@H](C(=O)N1CCN(C(=O)OC(C)(C)C)CC1)n1cc(CCCN=C(NC(=O)OC(C)(C)C)NC(=O)OC(C)(C)C)nn1	-4.7	-0.5	1.7	-4.9	33.5	i	2.3	-1.8
CCOc1cc(N2CCOCC2)c(OCC)cc1NS(=O)(=O)c1cc(NC(C)=O)ccc1OC	58.6*	2.6	4.4	20.1	-9.9	i	-16.8	-0.6	eIF4H FP inh retest=101.2*;PABP FP inh retest=44.6
